Source: PubChem BioAssay
Cruzain noTriton: blocks cruzain activity in detergent-free assay; P25779; purified cruzain, Z-FR-AMC fluorescence, no detergent; Potency, µM, without a hit: max response, negative = inhibition, usual class: inhibitors; 200,000 compounds, 2.3% hits;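 note: plate controls were enzyme without inhibitor for no effect and buffer without enzyme for full effect; nearly all actives have a fitted effect of over 40% in size; top concentration of the series not given in the record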
Target sequence (P25779 123-467 limits assumed): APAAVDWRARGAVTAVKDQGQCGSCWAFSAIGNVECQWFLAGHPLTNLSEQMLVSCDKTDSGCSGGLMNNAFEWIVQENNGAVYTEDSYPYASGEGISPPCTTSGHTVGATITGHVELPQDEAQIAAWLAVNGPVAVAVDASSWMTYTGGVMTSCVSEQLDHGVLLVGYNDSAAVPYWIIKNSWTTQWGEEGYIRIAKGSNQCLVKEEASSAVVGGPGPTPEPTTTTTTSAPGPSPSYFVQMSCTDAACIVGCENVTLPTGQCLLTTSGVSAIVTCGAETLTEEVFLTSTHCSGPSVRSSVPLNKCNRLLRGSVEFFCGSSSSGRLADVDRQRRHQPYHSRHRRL
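Detergent-free condition (0.00005% Triton X-100) in acetate buffer pH 5.5 with DTT. 1.5 nM enzyme and compound were pre-mixed 15 min, then 2 uM Z-FR-AMC substrate added; reaction progress from fluorescence change between first and third reads (60 s).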
NS1 function inh: influenza NS1 inhibition; 270,000 compounds, 0.4% hits; S. cerevisiae slowed by influenza A NS1, growth recovery by OD600; AID 2326; Potency, µM (series often up to 46.1 µM), for the others: at the top dose activity, positive = more growth; active means well fitted rising curve with a large enough effect; inconclusive means small, poorly fitted or top-dose-only effect; inactive means no such curve, though single readings can be large or run the other way; note: nearly all actives have a fitted effect of over 50% in size
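S. cerevisiae expressing influenza A NS1, grown in glucose, washed, then diluted 1:100 into pH 6.0 -URA galactose medium with 23 nl compound. Growth recovery read as OD600; NS1-free strain serves as control.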
MARV entry inh: inhibitors of Marburg virus binding or cell entry. Marburg virus pseudotyped entry inhibition, cell reporter; control for the full effect not named in the record; about a third of the inactives were read at about 46 µM. Potency, µM (titrated, usually from 37.8 µM), inactives show top-dose activity change, negative = inhibition, hits mostly inhibitors. 300,000 compounds, 1.8% hits. AID 540276; active = well fitted inhibition curve with a large enough effect; inconclusive = small, poorly fitted or top-dose-only effect, or effect the other way; inactive = flat fitted curve, though single readings scatter; tested in HEK293 cells; about a fifth of its hits are not listed in these tables; note: % is set by controls: 0 for no effect and ±100 for the full control effect; luciferase read-out
Cruzain inh Det: blocks cruzain activity in presence of Triton detergent. P25779. purified cruzain, Z-FR-AMC fluorescence, 0.01% Triton. Potency, µM, inactives show max response, negative = inhibition, most hits filed as inhibitors. 200,000 compounds, 0.43% hits. AID 1478;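 note: plate controls were neutral wells for no effect and buffer without enzyme for full effect; nearly all actives have a fitted effect of over 40% in size; top concentration of the series not given in the record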
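15 min RT preincubation of 1.5 nM cruzain with compound, then 2 uM Z-FR-AMC added; kinetic AMC fluorescence, 60 s delta. Triton X-100 0.01%, pH 5.5.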
StopGo reporter: FMDV 2A StopGo reporter, luciferase signal | human cells with a luciferase reporter of 2A StopGo recoding; control for the full effect not named in the record | Potency, µM (highest dose often 57.9 µM), inactives show top-dose signal change, negative = less light | 410,000 compounds, 1.2% hits; active = well fitted falling curve with a large enough effect; inconclusive = small, poorly fitted or top-dose-only effect; inactive = no such curve, though single readings can be large or run the other way; tested in HEK293T cells; note: % is set by controls: 0 for no effect and ±100 for the full control effect; nearly all actives have a fitted effect of over 45% in size; luciferase light after 4 h
SARS PLpro yeast: SARS-CoV PLP inhibition in yeast | S. cerevisiae expressing SARS-CoV PLpro, growth rescue; control for the full effect not named in the record | Potency, µM (highest dose often 32.9 µM), inactives show at the top dose activity, positive = growth rescue | 330,000 compounds, 0.19% hits | AID 485353; active means well fitted rising curve with a large enough effect; inconclusive means small, poorly fitted or top-dose-only effect; inactive means no such curve, though single readings can be large or run the other way; note: 0% is about no effect; nearly all actives have a fitted effect of over 55% in size; growth read by luminescence after 48 h
RE007 growth inh: less growth of the S. pombe RE007 Vpr strain; 360,000 compounds, 0.21% hits; Potency, µM (highest dose often 92.2 µM), for inactives: top-dose activity change, negative = less growth; S. pombe RE007 Vpr strain, BacTiter-Glo ATP luminescence, 24 h; control for the full effect not named in the record; AID 651644; active = well fitted falling curve with a large enough effect; inconclusive = small, poorly fitted or top-dose-only effect; inactive = no such curve, though single readings can be large or run the other way;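 note: % is set by controls: 0 for no effect and ±100 for the full control effect; nearly all actives have a fitted effect of over 50% in size; the assay follows cell death caused by Vpr and the record does not say whether a fall means rescue or toxicity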
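Fission yeast strain RE007, carrying one chromosomally integrated HIV-1 vpr copy, was seeded at OD 0.01 in PMG+AL medium with 23 nL pinned compound. After 24 h at 30 °C and 99% humidity, viability was read by BacTiter-Glo luminescence.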
Lassa entry inh: Lassa virus entry inhibition; Lassa virus pseudotype entry inhibition, cell reporter; control for the full effect not named in the record; Potency, µM (highest dose often 37.9 µM), without a hit: top-dose activity change, negative = inhibition, hits mostly inhibitors; 300,000 compounds, 1.2% hits; active means well fitted inhibition curve with a large enough effect; inconclusive means small, poorly fitted or top-dose-only effect, or effect the other way; inactive means flat fitted curve, though single readings scatter; tested in HEK293 cells; note: % is set by controls: 0 for no effect and ±100 for the full control effect; nearly all actives have a fitted effect of over 50% in size; luciferase read-out
An asterisk follows results filed as active; ? = inconclusive; / = not tested or not shown; [ ] = another dose, or the depositor's remark. Unless noted, calls come from the whole dose curve; as a rule, active = well fitted curve in the direction sought with a large enough effect; inconclusive = small, poorly fitted or top-dose-only effect, or another doubt; inactive = no such curve, though single readings can be large; an effect the other way counts as inactive or inconclusive. Potency is the fitted concentration of half-maximal effect. Not a hit list. Share with any hit: about 4.7%.

SMILES | Cruzain noTriton | NS1 function inh | MARV entry inh | Cruzain inh Det | StopGo reporter | SARS PLpro yeast | RE007 growth inh | Lassa entry inh
Cc1c(C2(O)C(=O)Nc3ccc(F)cc32)c(=O)n(-c2ccccc2)n1C (stereo unspecified) | -2% | 4% | -6% | -0.6% | -1% | 2% | -1% | 7%
Fc1ccc(-c2cn3cc(Cc4ccccc4Cl)sc3n2)cc1 | -17% | / | / | -4.7% | 0% | / | / | ?
CCNC(=S)NNC(=O)c1ccc(OC(F)F)cc1 | -5% | -3% | 1% | 4.8% | 10% | 8% | 13% | 25%
COc1ccc(/C=N/NC(=O)C(C)n2nnc3ccccc32)cc1OC (stereo unspecified) | 2% | 1% | 12% | -5.6% | 0% | 8% | 15% | 5%
O=C(CSc1cn(CC(=O)N2CCCCC2)c2ccccc12)Nc1ccccc1F | -9% | / | / | -5.2% | ? | / | / | -14%[46.1 µM]
N/C(=N\OC(=O)COc1ccc(Cl)cc1)c1cccnc1 | -11% | 1% | ? | -0.8% | 6% | -16% | -25% | 3%
Cn1c(=O)c2c(-c3ccc(Cl)cc3)n(CCc3ccccc3)cc2n(C)c1=O | ? | / | ? | -20% | -11% | / | / | 5%[46.1 µM]
COc1cc(NC(=O)C2CCCO2)c(OC)cc1Cl (stereo unspecified) | -2% | -8% | 14% | -2.9% | 0% | -3% | -22% | 0%
C=CCOc1ccc2c(c1)c(=O)cc(C(=O)O)n2CC | / | 3% | / | / | 8% | 0% | 14% | /
CCc1nc(SCc2ccc([N+](=O)[O-])cc2)n[nH]1 | -6% | 22% | 6% | -5.3% | 34%[activator] | 15% | 14% | 15%
O=C(CSCc1ccco1)NC1CCCC1 | 2% | 10% | -3% | -5.0% | 13% | 5% | 1% | 17%
Cc1nc2ccc(S(=O)(=O)NCC(=O)NCCc3ccc(Cl)cc3)cc2s1 | / | 0% | 7%[46.1 µM] | / | -8% | 1% | -14% | 4%[46.1 µM]
CCCN1CCC(=O)N([C@H](CN=[N+]=[N-])CC(C)C)CC1 | / | 15% | / | / | -11% | -5% | -8% | /
CC(C)CNC(=O)COC(=O)c1ccccc1SCC(=O)NCC(C)C | / | / | -19% | / | 7% | 2% | -7% | -3%
O=C(CNC1CCCC1)Nc1ccc(S(=O)(=O)N2CCCCC2)cc1 | / | 8% | -4%[46.1 µM] | / | 12% | 3% | -19% | ?
COc1ccccc1NS(=O)(=O)c1cccc(NC(=O)Nc2ccccc2)c1 | 7% | 22% | ? | -8.7% | ? | -3% | 9% | 15µM*
CCOC(=O)C1CCN(C(=O)CN2C(=O)c3ccccc3Sc3ncccc32)CC1 | / | -3% | / | / | -9% | 1% | -10% | /
COc1ccc(-n2nnnc2S(=O)(=O)Cc2ccc(C(=O)O)cc2)cc1 | 3% | -43% | ? | 8.3% | 28µM* | -16% | 1% | -10%
CNC(=S)Nc1cccc(-c2cnc3ccccc3n2)c1 | / | -3% | ? | / | 29% | -2% | -3% | ?
Cc1ccc(CNC(=O)c2nc(SCc3ccc(C)cc3)ncc2Cl)cc1 | -6% | / | 9%[46.1 µM] | 4.8% | -21% | / | / | 15%[46.1 µM]
C/C(=N\NC(=O)CNC(=O)C1COc2ccccc2O1)c1ccco1 (stereo unspecified) | / | 3% | -11%[46.1 µM] | / | -9% | 0% | -5% | -1%[46.1 µM]
O=C(O)c1ccc(S(=O)(=O)c2ccccc2)s1 | / | / | 0%[46.1 µM] | / | -5% | / | 4% | 2%[46.1 µM]
Cc1ccccc1NC(=O)c1cc(S(=O)(=O)c2ccccc2)ccc1Cl | -6% | 3% | ? | 0.7% | -16% | 10% | -1% | ?
CCN(CCCNC(=O)CN1N=C(c2ccc(C)cc2)CCC1=O)c1ccccc1 | ? | / | / | 0.0% | -21% | / | / | -3%[46.1 µM]
CS(=O)(=O)N1N=C(c2cccs2)CC1c1ccco1 (stereo unspecified) | / | -2% | ? | / | 27% | -1% | -10% | ?
CC(C)(C)c1cccc(P(=O)(c2ccccc2)c2ccccc2)c1O | / | 5% | 3%[46.1 µM] | / | 27% | 1% | 5% | 19%
COc1ccccc1CNS(=O)(=O)c1c(C)nc2sc(C)cn2c1=O | -12% | / | / | -0.8% | 53%[activator] | / | / | 6%[46.1 µM]
O=C(Cn1cc([N+](=O)[O-])cn1)N1N=C(C(F)F)CC1(O)C(F)F (stereo unspecified) | -10% | 5% | 3% | 1.7% | -8% | -16% | -27% | 0%
COc1ccccc1NC(=O)C(=O)c1cc(C)n(-c2cc(C)cc(C)c2)c1C | 2% | / | -18%[46.1 µM] | -5.6% | -1% | / | / | -15%[46.1 µM]
C=CCOc1ccc(/C=N/NC(=O)CN2CCCCC2)cc1OC | / | 15% | 8% | / | 10% | 13% | -15% | ?
CCOc1nc2cnccc2n(CC(=O)Nc2c(C)cccc2CC)c1=O | / | 1% | / | / | -8% | -1% | -9% | /
COc1ccc(NCc2n[nH]c(=O)c3ccccc23)cc1 | -4% | -16% | -23%[46.1 µM] | 1.7% | 16% | 12% | -10% | 17%
CCN(C(=O)COC(=O)C1CC1C)c1c(N)n(Cc2ccccc2)c(=O)[nH]c1=O (stereo unspecified) | / | / | -15% | / | -5% | -2% | -8% | 2%
COc1ccccc1NC(=O)c1cc2cc3ccc(OC)c(Cl)c3nc2s1 | 3% | / | / | -4.0% | -10% | / | / | -3%[46.1 µM]
Cc1ccc(NC(=S)N(CCN(C)C)Cc2cccs2)c(C)c1 | / | / | 7%[46.1 µM] | / | 7% | -6% | -10% | 6%
CCS(=O)(=O)Nc1ccc(C2=NN(C(=O)c3ccco3)C(c3ccc(Cl)o3)C2)cc1 (stereo unspecified) | / | / | ? | / | 28µM* | 8% | 8% | ?
Cc1ccc(C(=O)N2CCN(c3ccc(N4CCOCC4)nn3)CC2)cc1C | / | / | -3% | / | -17% | 3% | 0% | -16%
CCOC(=O)Cc1csc(NC(=O)c2c(-c3c(F)cccc3Cl)noc2C)n1 | -10% | -17% | 6% | -4.6% | -2% | 1% | 17% | -12%
O=C1C2CC=CCC2C(=O)N1c1n[nH]c(-c2ccccc2)n1 (stereo unspecified) | 2% | 8% | 10% | 2.0% | -5% | -9% | -1% | -2%
CC(=O)c1ccc(S(=O)(=O)N2CCN(C(=O)CSC(=S)N3CCCC3)CC2)cc1 | / | / | 0% | / | -12% | -5% | 14% | -13%
CCOCC(=O)Nc1ccc(-c2cn3c(C)csc3n2)cc1 | -1% | / | / | -3.0% | 37%[activator] | / | / | 3%[46.1 µM]
CCCc1cc(N2CCC(C(N)=O)CC2)nc(-c2ccccc2)n1 | / | -2% | 0%[46.1 µM] | / | 34%[activator] | 1% | -1% | 8%
Cc1ccc(C(=O)N2CCCCC2)cc1S(=O)(=O)N1CCCC1 | / | -20% | / | / | 37%[activator] | -2% | 9% | /
COC(=O)[C@@H]1[C@@H](C)N(Cc2ccccc2)C(=O)N[C@H]1c1cccc(C(F)(F)F)c1 | / | 0% | -19%[14.2 µM] | / | 0% | 0% | -6% | /
COc1cccc(C(=O)NCCS(=O)(=O)N(C)C2CCCCC2)c1 | / | / | ? | / | 12% | -2% | 28% | 7%
Cc1cc(C)cc(N(CC(=O)NC(C)(C)C)C(=O)CCC(=O)Nc2ccccn2)c1 | / | 2% | / | / | -9% | -1% | 3% | /
CCN1CCN(Cc2c(O)ccc3c2O/C(=C\c2ccccc2)C3=O)CC1 | / | 17% | -14%[46.1 µM] | / | -1% | 13% | -25% | 13%[46.1 µM]
O=C(O)CCSc1nnc(CNc2ccc(Cl)cc2)n1Cc1ccccc1 | ? | 12% | 6% | -3.2% | 7% | -5% | -6% | ?
CCOC(=O)C1C(c2ccc(Cl)cc2)NC(=S)NC1(O)C(F)(F)F (stereo unspecified) | / | / | -13%[46.1 µM] | / | -11% | 4% | -3% | -14%[46.1 µM]
COc1ccc2c(C)cc(SCC(=O)NCCN3C(=O)CSC3=O)nc2c1 | 10% | -10% | -24% | -6.4% | -15% | 2% | 4% | -3%
COc1ccc(C(=O)NCCNC(=O)c2cnccn2)cc1 | / | 5% | 20%[46.1 µM] | / | 8% | 1% | -15% | -17%
Cc1ccc(S(=O)(=O)/N=C2/NC(=O)/C(=C/c3ccccc3)S2)cc1 | / | -55% | ? | / | 12% | -3% | 6% | -4%[46.1 µM]
COc1ccc(S(=O)(=O)N2CCC(C(=O)NC(C)CCc3ccccc3)CC2)cc1 (stereo unspecified) | / | -13% | -9%[46.1 µM] | / | 3% | 2% | -16% | ?
N#Cc1ccc(CN2CCN(C(=O)c3ccccc3)CC2)c(Cl)c1 | -1% | -8% | -4% | -1.7% | -18% | -4% | -4% | -29%
COc1ccc(-c2cc(C)no2)cc1S(=O)(=O)NCC(C)c1ccccc1 (stereo unspecified) | / | -20% | ? | / | -8% | -3% | 2% | ?
Cc1ccc(C(CC(N)=O)c2ccco2)cc1 (stereo unspecified) | -4% | -1% | 1% | 3.6% | -2% | 0% | 11% | -8%
CCOc1ccc(C(=O)c2cn(CC(=O)Nc3ccc4c(c3)OCCO4)c3ccc(F)cc3c2=O)cc1 | -17% | / | ? | -0.6% | -11% | / | / | -2%[46.1 µM]
CN(C)c1ccc(S(=O)(=O)NCC(=O)OCC(=O)Nc2cccc(Cl)c2)cc1[N+](=O)[O-] | -11% | -1% | 1% | -14% | 1% | 16% | 7% | ?
NC(=O)COC(=O)CC(c1ccccc1)c1ccccc1 | / | 7% | 5%[46.1 µM] | / | -9% | 2% | -2% | 9%
